hNpr1 antagonist – blocks ANP-stimulated signaling of human Npr1 receptor | HEK293 hNpr1 GloSensor cGMP, ANP-stimulated luminescence | P16066 | AID 1347048 | Potency, µM (top dose mostly 46.3 µM), without a hit: at the top dose activity change, negative = inhibition, hits mostly inhibitors | 1.6% of 76,000 active; active = well fitted inhibition curve with a large enough effect; inconclusive = small, poorly fitted or top-dose-only effect; inactive = no such curve, though single readings can be large or run the other way;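 further: nearly all actives have a fitted effect of over 60% in size; nearly all hits also lower the signal before the agonist is added; a reference antagonist and vehicle were the controls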
Target sequence (P16066 whole entry, looked up): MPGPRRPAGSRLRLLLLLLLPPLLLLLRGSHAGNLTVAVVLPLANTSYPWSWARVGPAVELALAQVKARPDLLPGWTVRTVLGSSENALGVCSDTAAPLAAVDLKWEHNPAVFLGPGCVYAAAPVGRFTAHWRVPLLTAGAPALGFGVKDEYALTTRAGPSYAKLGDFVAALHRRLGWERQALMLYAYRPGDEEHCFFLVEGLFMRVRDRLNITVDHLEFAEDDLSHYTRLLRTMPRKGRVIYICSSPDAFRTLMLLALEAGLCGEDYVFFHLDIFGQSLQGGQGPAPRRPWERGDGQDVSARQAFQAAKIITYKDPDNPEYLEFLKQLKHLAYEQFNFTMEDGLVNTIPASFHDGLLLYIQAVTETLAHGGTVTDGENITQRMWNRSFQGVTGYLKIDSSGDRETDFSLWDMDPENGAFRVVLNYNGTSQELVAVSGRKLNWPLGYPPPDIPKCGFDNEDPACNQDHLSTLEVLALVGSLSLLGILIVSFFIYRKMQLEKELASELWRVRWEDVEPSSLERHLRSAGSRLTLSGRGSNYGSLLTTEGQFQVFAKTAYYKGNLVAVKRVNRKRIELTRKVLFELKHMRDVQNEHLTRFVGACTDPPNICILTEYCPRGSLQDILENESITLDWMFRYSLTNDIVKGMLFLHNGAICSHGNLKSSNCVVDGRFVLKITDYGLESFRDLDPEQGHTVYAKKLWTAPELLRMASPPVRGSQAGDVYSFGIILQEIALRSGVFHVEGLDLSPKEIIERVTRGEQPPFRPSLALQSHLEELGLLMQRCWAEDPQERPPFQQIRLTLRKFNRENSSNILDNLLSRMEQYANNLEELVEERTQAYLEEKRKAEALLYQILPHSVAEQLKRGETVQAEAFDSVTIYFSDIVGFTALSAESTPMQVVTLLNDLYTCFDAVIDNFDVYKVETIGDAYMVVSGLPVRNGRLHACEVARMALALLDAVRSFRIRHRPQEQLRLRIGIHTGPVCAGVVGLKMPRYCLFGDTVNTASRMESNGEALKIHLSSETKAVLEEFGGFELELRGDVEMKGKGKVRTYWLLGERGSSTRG
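HEK293 cells stably expressing human Npr1 and cGMP GloSensor pGS-40F, loaded 2 h with 2% GloSensor reagent, given compound 30 min at room temperature. Luminescence read before and 20 min after 0.1 nM hNppA.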
* = called active by the depositor; ? = inconclusive; [ ] = dose if it differs, or a comment. On the % scale 0 is the no-effect control and ±100 the full control effect; potency means the concentration at half of the fitted maximal effect. The list is partial; rates above refer to the full screens.

Start of the data: the first four compounds, ahead of the listing:
SMILES	hNpr1 antagonist
Cc1noc(C2CCCCCN2C(=O)CC2CCCC2)n1 (configuration not stated)	-11%
Cc1ccc(-n2c(C3CCN(C(=O)Cc4ccccc4Cl)CC3)n[nH]c2=O)cc1	-2%
Cc1ccc(-n2c(=O)c3c(cc(C)n3C)n(CC(=O)Nc3ccccc3F)c2=O)cc1	1%
COCCC(=O)N1CC(Oc2ccc(-c3noc(-c4ccccc4)n3)cc2)C1	20µM*

The listing, previewed entries included:
SMILES	hNpr1 antagonist
Cc1noc(C2CCCCCN2C(=O)CC2CCCC2)n1 (configuration not stated)	-11%
Cc1ccc(-n2c(C3CCN(C(=O)Cc4ccccc4Cl)CC3)n[nH]c2=O)cc1	-2%
Cc1ccc(-n2c(=O)c3c(cc(C)n3C)n(CC(=O)Nc3ccccc3F)c2=O)cc1	1%
COCCC(=O)N1CC(Oc2ccc(-c3noc(-c4ccccc4)n3)cc2)C1	20µM*
COCCCNC(=O)c1ccnc(-c2nnc3ccc(N(C)C)nn23)c1	3%[70.6 µM]
CCOCc1nc(C2CCCN2C(=O)Nc2ccsc2C(=O)OC)no1 (configuration not stated)	-15%
COCCC(=O)N1CCCN(CCc2ccccc2)c2ccccc21	-10%
O=S(=O)(Cc1ccccc1)N1CCC(N2CC(OCC3CC3)C23CCOCC3)CC1 (configuration not stated)	0%
O=C(c1cc2ccccc2[nH]1)N1CCCN(c2cc(-c3ccccc3)[nH]n2)CC1	-4%
Cc1nc(C2CC2)ncc1C(=O)N1CCC2(CC1)NC(=O)CC2C(=O)O (configuration not stated)	0%
O=C1NCCCCCCN(S(=O)(=O)Cc2ccccc2)[C@H]2CCC[C@@H]12	-14%
CN(CC1(C)CCOCC1)C(=O)c1ccccn1	-1%
COC(=O)[C@@H](C)NC(=O)[C@H]1CN(S(=O)(=O)c2ccccc2)CCN1C(=O)NC1CCCCC1	0%
Cc1cccc(-c2nocc2CCC(=O)NC2CCN(Cc3ccccc3)CC2)c1	-19%
O=c1c2cc(-c3cccs3)nn2ccn1CC(O)c1ccccc1 (configuration not stated)	-29%
O=C1CCN(C(=O)[C@@H]2CCCN2Cc2ccc(F)cc2F)CCCCCCN1	-2%
CC(=O)N[C@@H]1C[C@H](Cc2ccccc2)O[C@H](c2c(C)nc3sccn23)C1	6%
CCOC(=O)C1CCCN(C(=O)C2CC(c3ccc(OC)c(OC)c3)CN(C(=O)COC)C2)C1 (configuration not stated)	2%
O=C(c1ccc2ccccc2n1)N1CCC(N2CC3CC(C2)[C@H]2CCCC(=O)N2C3)CC1 (some centres not stated)	2%
COCCc1nncn1C1CCN(C(=O)c2cc(C)ccc2C)CC1	2%
S=C(Nc1cccc2ccccc12)N[C@H]1CO[C@H]2[C@@H]1OC[C@H]2OCc1ccccc1	?
O=C1NC2(CCN(Cc3ccc(C(F)(F)F)cc3)C2)Oc2ccccc21 (configuration not stated)	-25%
COCC1CN(C(=O)c2ocnc2C)CC12CCNCC2 (configuration not stated)	5%
Cc1noc([C@@H]2CN(C(=O)c3cc(C)oc3C)C[C@H]2CO)n1	-2%
O=C(C1CCOC1)N1CCC(C(=O)O)(n2ccc(-c3ccco3)n2)CC1 (configuration not stated)	-4%
New compounds follow:
SMILES	hNpr1 antagonist
CC(NC(=O)C1CCN(C(=O)c2ncn3c2COC(c2ccccc2)C3)CC1)c1ccc(F)cc1 (configuration not stated)	-8%
Cc1cc(Cl)ccc1Nc1ncncc1-c1nc(-c2ccccc2)no1	-9%
COc1ccccc1-c1cnc(Nc2cncnc2)c2c1CCO2	1%[70.6 µM]
COc1ccc(C(=O)N[C@@H]2CN(Cc3ccccc3)C[C@H]2CO)cn1	4%
COc1ccc(C(=O)NCCn2ccn3nc(-c4ccc(F)cc4)cc3c2=O)cn1	-3%
CNC(=O)[C@@H]1CN(C(=O)c2ccc3cc[nH]c3c2)C[C@H]1C1CCN(C)CC1	8%
O=C(CC1COCCN1)NCc1ccc(N2CCCC2=O)cc1 (configuration not stated)	2%
Cc1noc(C)c1CCC(=O)N1C[C@@H](C)[C@@](C)(O)C1	6%
CCNC(=O)[C@@H]1C[C@H](N)CN1C(=O)c1ccc(OC)c(OC)c1	5%
O=C(CC1CCCC1)N1CCC(Cc2nc(C3CC3)n[nH]2)C1 (configuration not stated)	2%
CC(C)(C)c1ccc(C(=O)N2CCCC3(C2)NC(=O)N(Cc2ccccc2)C3=O)cc1 (configuration not stated)	-1%
Cc1nc(C)n(CCNC(=O)c2cnc(-c3cccnc3)nc2)n1	1%
COc1ccc(C(=O)N2CC(c3nnc(-c4ccncc4)o3)C3(CCOCC3)C2)cn1 (configuration not stated)	0%
COc1cccc(-c2ccccc2NC(=O)C2CCN(Cc3cc(F)ccc3F)CC2)c1	?
O=C(c1cnccn1)N1CCC(n2cc(-c3nc(-c4ccccc4)no3)nn2)CC1	0%
O=C1[C@@H]2C[C@@H](CN2C(=O)c2ccccc2)Oc2ccccc2N1Cc1ccccc1	-15%[70.6 µM]
COc1ncccc1CN1CCC2(CC1)OC(=O)N(Cc1ccc(O)cc1)C2(C)c1ccccc1 (configuration not stated)	-26%
CSc1cccc(NC(=O)c2ccc3c(c2)N(C)C2CCCN2C3=O)c1 (configuration not stated)	-1%
CN(C)C(=O)c1ccc(OC2CCN(C(=O)c3c(F)cccc3F)CC2)nc1	-2%
Cc1cc(C(=O)N2CC(N(C3CCOCC3)S(C)(=O)=O)C2)nn1C	-8%
O=C(Nc1ccc([C@@H](O)[C@H]2COCC(=O)N2Cc2ccccc2)cc1)c1ccc(F)cc1	-9%[70.6 µM]
O=C(c1cccc(F)c1)N1CCC2(CC1)NC(=O)N(Cc1ccc(F)cc1)C2=O	?
CCN(Cc1ccccc1)Cc1nnc2cc(-c3nc(-c4ccccc4)no3)ccn12	-17%
Cc1onc(C(=O)N2CCc3c(c(-c4nncn4-c4ccccc4)nn3C)C2)c1CN1CCCCC1	2%
CCC(C)NC(=O)N1CC(n2cc(C(=O)N(C)CCOC)nn2)C1 (configuration not stated)	2%
(continued)
SMILES	hNpr1 antagonist
N#Cc1ccc(CN2CCCCCCNC(=O)[C@@H]3CCC[C@@H]32)cc1	-12%
CN(C)c1cc(N2CCCC(N)C2)ncn1 (configuration not stated)	3%
COc1ccc(C(=O)N2C(C(=O)NCC(C)C)COC23CCN(C(=O)C2CCC2)CC3)cc1 (configuration not stated)	0%
O=C(Nc1cccc(F)c1)N1CCCC(CN2CCOCC2)CC1 (configuration not stated)	4%
O=C(NC1CCCCC1)N1CCc2c(nc(-c3ccncc3)[nH]c2=O)C1	-2%
COc1cc(-c2ccnc3nc(Cc4ccc(F)cc4)nn23)cc(OC)c1OC	-17%
CC(C)Cc1nc2nccc(-c3ccc(F)cc3)n2n1	2%
CSCC(=O)N1CC[C@H](NC(=O)NC(C)C)[C@H]1C(=O)N(C)CC(N)=O	-4%[70.6 µM]
CC(O)CN1CC2(CCC1=O)CCN(S(=O)(=O)N1CCCC1)CC2 (configuration not stated)	17%
CC(C)Nc1ccc2nnc(-c3ccc(F)cn3)n2n1	3%[70.6 µM]
CC(C)=CCC1(CO)CCCN(Cc2cscn2)C1 (configuration not stated)	0%
Cc1ccc2c(c1)SCC(=O)N2CC(=O)N(C)Cc1ccoc1	7%
CCO[C@H]1CN(Cc2cnc(SCc3ccccc3)nc2)C[C@@H]1O	-1%
NCCn1cc(C(=O)NCc2cc3n(n2)CCN(C2CCCCC2)C3)nn1	4%
Cc1cc(=O)n(CC(=O)N2CCN(c3ccc(F)cc3)CC2)c(-c2ccc(F)cc2)n1	4%
CN(Cc1nccn1Cc1ccccc1)C(=O)CCc1ccc2c(c1)OCO2	-9%
CS(=O)(=O)N1C[C@H]2CCN(C(=O)c3ncccc3F)C[C@H]21	9%
CC1(COc2cccnc2)COc2ccc(C(=O)NC3CCC(O)CC3)cc2N1 (configuration not stated)	-1%[70.6 µM]
CCOC(=O)CCCOc1cccn2c(=O)c(-c3cc(C)n(-c4ccc(Cl)cc4)n3)c(C)nc12	0%
O=C(CCC[C@@H]1[C@H]2CCCN3CCC[C@@H](CN1C(=O)c1ccccc1)[C@@H]23)NCCN1CCCCC1	-3%
O=C(C1CC1)N1CCC2(CCCCO2)CC1	1%
Cc1nc(C)c(C(=O)N2CCCC(c3nn(C)c(=O)n3-c3ccccc3)C2)s1 (configuration not stated)	0%
O=C(c1ccoc1)N1CCC(c2noc(CO)n2)C1 (configuration not stated)	-5%
CN1CCCCCCN(C(=O)C2CCOCC2)[C@H]2CCC[C@H]2C1=O	1%
CC(=O)N1CCCN(C(=O)C(c2cccc(F)c2)N(C)C)CC1 (configuration not stated)	0%

Some of the entries so far, with each value named.
> O=C(C1CC1)N1CCC2(CCCCO2)CC1
- hNpr1 antagonist: 1%
> Cc1nc(C)c(C(=O)N2CCCC(c3nn(C)c(=O)n3-c3ccccc3)C2)s1 (configuration not stated)
- hNpr1 antagonist: 0%
> O=C(c1ccoc1)N1CCC(c2noc(CO)n2)C1 (configuration not stated)
- hNpr1 antagonist: -5%
> CN1CCCCCCN(C(=O)C2CCOCC2)[C@H]2CCC[C@H]2C1=O
- hNpr1 antagonist: 1%

Additional compounds follow:
SMILES	hNpr1 antagonist
FC(F)(F)c1ccc(O[C@H]2COCCN(c3nc4ccccc4o3)C2)nc1	35µM*
O=C(c1cnccn1)N1C[C@@H]2OCC(=O)N(Cc3ccccc3)[C@@H]2C1	-2%[70.6 µM]
Cc1ncccc1C(=O)N1CCC(c2noc(-c3ccccn3)n2)C1 (configuration not stated)	-1%
O=c1c2nc(NCc3cccs3)ccc2ncn1Cc1ccccc1	3%[70.6 µM]
C=CCN(Cc1cccc(OCC)c1)C(=O)CC1CNCCO1 (configuration not stated)	0%
CS(=O)(=O)N1CCN2C(=O)N(Cc3cccnc3)C[C@H]2C1	0%[70.6 µM]
O=C(Nc1ccnn1C1CCN(Cc2ccc(-c3ccccc3)cc2)CC1)C1CC1	?
COc1ccc(C(=O)N2CCCC(c3nc(-c4ccccc4)no3)CCNC(=O)CC2)cn1 (configuration not stated)	6%
Cc1noc(C)c1-c1cc(-c2ccccc2O)cn2cncc12	-20%[70.6 µM]
COc1ccccc1CN1CCc2c(n(CCOc3ccccc3)n(-c3ccccc3)c2=O)C1	-5%
CS(=O)(=O)N1CCC(OC2CCN(C(=O)Nc3cccc(C(F)(F)F)c3)CC2)CC1	-24%
COc1ncc(-c2cc(C(=O)NCc3cnn(C)c3)c3c(c2)N(C)CCO3)cn1	4%[70.6 µM]
COCC(=O)N1CCN(C(=O)c2cccnc2)[C@@H](C(=O)N[C@H]2CCCNC2=O)C1	-3%[70.6 µM]
COCCn1ncc(N2CCC(NC(=O)C(C)C)CC2)cc1=O	2%
O=C(NC1CC(=O)N(CCCc2ccccc2)C1)c1ccc2c(c1)OCO2 (configuration not stated)	-1%
CCN(CC)C(=O)N1CCCN(C(=O)C2CC2)C(c2ccccc2)CC(=O)NCC1 (configuration not stated)	2%
O=C([C@H]1C[C@@H](F)CN1S(=O)(=O)c1cccc(C(F)(F)F)c1)N1CCOCC1	-2%
CNC(=O)c1cccn2nccc12	14%[70.6 µM]
O=C(N[C@@H]1CN(CC2CC2)C[C@H]1CO)c1ccccc1	2%
COc1cccc(CN(Cc2cccnc2)C(=O)C2CNCCO2)c1OC (configuration not stated)	2%
CN(Cc1cc(=O)c2cc(C(N)=O)ccc2[nH]1)Cc1n[nH]c2c1CCCCC2	-1%
Cc1sc2ncnc(N3CCC(NC[C@@H]4C[C@H](F)CN4)CC3)c2c1C	-2%
O=C(N[C@@H]1CCC[C@@H]1C(=O)N1CCSCC1)c1ccncc1	-3%
COc1ccccc1N1CCCc2ncc(C(=O)Nc3ccccc3C)cc21	-7%[70.6 µM]
CC(C)Oc1cccc(-c2nnc(CCC(=O)NCCOc3ccccc3)c(=O)[nH]2)c1	2%
Next section
SMILES	hNpr1 antagonist
O=C1CC2(CCN(C(=O)[C@@H]3CCCN3)CC2)CN1Cc1ccc(F)c(F)c1	1%
Cn1cc(NC(=O)C[C@H]2NC(=O)c3ccccc3NC2=O)cn1	-2%
c1ccc(Cc2noc(CCn3ccnc3-c3ccncc3)n2)cc1	3%
O=C(c1ccc(N2CCC(CO)C2)nc1)N1CCC(Oc2cccnc2)CC1 (configuration not stated)	-1%
COC(=O)c1ccc(NC(=O)Cn2nc3n(c2=O)CCCC3)cc1	4%
COc1ccc(C[C@H](NC(=O)[C@@H]2C[C@H](NC(=O)Nc3ccc(F)cc3F)CN2C(=O)CC(C)(C)C)C(N)=O)cc1	-2%
Cc1cccc(-c2noc(CCC(=O)N3CCC(C)(c4noc(C)n4)CC3)n2)c1	-12%
O=C(Cc1ccccc1F)NCCC1CCN(C(=O)Nc2ccc(F)cc2F)CC1	-1%
COc1ccc(C(=O)N[C@@H]2C=C(C(=O)N[C@H](C)C(N)=O)C[C@@H](O)[C@@H]2O)cc1	-10%[70.6 µM]
COc1ccc(N2CC(c3noc(-c4ccc(C(C)(C)C)cc4)n3)CC2=O)cc1OC (configuration not stated)	?
CN(Cc1ccccc1)C(=O)c1c(OCC2CC2)cc(=O)n2c1CCOCC2	2%
COc1cc2c(cc1OC)C(CNC(=O)Cc1ccccc1)N(C(=O)NC(C)C)CC2 (configuration not stated)	-1%
CC(=O)c1cc(CN2CCC3(CC2)C(C(=O)O)CC(=O)N3C)cs1 (configuration not stated)	-1%
Cc1cccc(OC[C@H]2C[C@@H](NC(=O)c3ccccc3)[C@H](O)[C@@H]2O)n1	1%[70.6 µM]
CC1=C[C@@H](CNC2CCOCC2)[C@H](C(C)C)C[C@H]1Cc1nc2ccc(F)cc2[nH]1	1%[70.6 µM]

Entries listed so far that bear a hit mark in hNpr1 antagonist:
SMILES	hNpr1 antagonist
COCCC(=O)N1CC(Oc2ccc(-c3noc(-c4ccccc4)n3)cc2)C1	20µM*
FC(F)(F)c1ccc(O[C@H]2COCCN(c3nc4ccccc4o3)C2)nc1	35µM*
